VACV mCherry inh: vaccinia inhibition (mCherry reporter); Vaccinia virus mCherry reporter infection, fluorescence; about a quarter of the inactives have no number; AID 720579; 0.63% of 310,000 active; Potency, µM (doses to about 36.5 µM), without a hit: top-dose activity change, negative = inhibition, hits mostly inhibitors; active = well fitted inhibition curve with a large enough effect; inconclusive = small, poorly fitted or top-dose-only effect; inactive = no such curve, though single readings can be large or run the other way; tested in A549 cells; further: nearly all actives have a fitted effect of over 35% in size; inactives centre near -10
Vaccinia Venus: vaccinia inhibition (Venus reporter); AID 720580; Vaccinia virus Venus reporter expression, fluorescence; 0.46% of 330,000 active; Potency, µM (top dose mostly 36.5 µM), inactives show at the highest dose activity change, negative = inhibition, hits mostly inhibitors; active means well fitted inhibition curve with a large enough effect; inconclusive means small, poorly fitted or top-dose-only effect; inactive means no such curve, though single readings can be large or run the other way; tested in A549 cells; further: nearly all actives have a fitted effect of over 30% in size; inactives centre near -10
An asterisk follows results filed as active; i = inactive; ? = inconclusive; · = no result given; [ ] = dose if it differs, or a comment. On the % scale 0 is the no-effect control and ±100 the full control effect; potency means the concentration at half of the fitted maximal effect. Hits appear at their usual frequency, and some 0.86% of all compounds hit somewhere here.

SMILES	VACV mCherry inh	Vaccinia Venus
O=C(NCC(c1ccco1)N1CCCCC1)c1ccc(COc2ccccc2)cc1 (stereo not drawn)	-11.4%	-28.1%
Cc1cc(F)ccc1S(=O)(=O)N1CCCOC1CNC(=O)C(=O)NCc1ccccn1 (stereo not drawn)	-12.6%	-13.6%
CCNC(=S)N1CCN(c2nc(CC)nc3sc4c(c23)CCCC4)CC1	-24.0%	?
Cc1cccn2c(=O)c3cc(C#N)c(=NC(=O)c4cccs4)n(CCCOC(C)C)c3nc12	i	-15.4%
O=C(CNS(=O)(=O)c1ccc(C(=O)N2CCCCC2)cc1)N1CCCCC1	i	-15.1%
CCOC(=O)N1CCN(C(=O)c2ccccc2SCC(=O)NCC2CCCCC2)CC1	-18.8%	-21.6%
Cn1nc(C(F)(F)F)c2cc(NC(=O)OCc3ccc(C(C)(C)C)cc3)sc21	-9.4%	-9.9%
C[C@@H]1CN([C@@H](C)CO)C(=O)CCCn2nncc2CO[C@H]1CN(C)Cc1ccc2c(c1)OCO2	-24.2%	-2.6%
Cc1cccc(NC(=O)/C(C#N)=C/c2ccc(C)o2)c1	-1.8%	-6.4%
CCOC(=O)C1CN(S(=O)(=O)c2cccs2)c2ccc(CC(=O)OC)cc2O1 (stereo not drawn)	-17.6%	-18.4%
CCCCNC(=O)c1c(N)[nH]c(C(=O)c2ccccc2)c1-c1ccccn1	-21.8%	-18.3%
CCCCCN1C2=NCCN2c2ccccc21	-12.9%	-20.5%
Cc1cccnc1NC(=O)c1ccc2nc(N)sc2c1	·	-0.5%
CCN1CCCC1Cn1cnc2c([nH]c3cc(OC)ccc32)c1=O (stereo not drawn)	-0.2%[1.46 µM]	-11.3%
O=C(O)CNS(=O)(=O)c1ccc2c3c(cccc13)C(=O)N2	-3.8%	-1.1%
CC1CN=C(c2cccn2Cc2ccc(F)cc2Cl)O1 (stereo not drawn)	-10.2%	0.3%
Cc1nnc2c3ccccc3c(Cl)nn12	-5.9%	-6.3%
Cc1cc(NC(=O)Nc2cc(Cl)ccc2C)no1	-5.3%	-13.4%
CC(C)n1c(CNC(=O)c2ccccc2F)nnc1SCC(=O)c1ccc(F)cc1	-14.9%	-0.2%
CCOC(=O)CN(C(=O)CSc1nnc(COc2ccc(OC)cc2)n1C)c1ccccc1	-6.8%	-5.8%
COc1ccc(N2C(=O)C3CCCN3C2c2cccs2)cc1 (stereo not drawn)	-18.0%	-2.7%
COc1ccc(CC(O)COS(N)(=O)=O)cc1 (stereo not drawn)	i	-10.4%
CN(CC(=O)Nc1ccc(Cl)c(C(F)(F)F)c1)C(=O)c1cn2ccccc2n1	-12.0%	-23.1%
COc1ccc(Cc2nc3ccc(C(=O)N(C)CCO)cc3o2)cc1	-16.3%	-9.5%
CC1CC(=O)N(CC(=O)Nc2ccc(F)cc2F)c2ccccc2S1 (stereo not drawn)	4.8%	-6.7%

Carrying on.
SMILES	VACV mCherry inh	Vaccinia Venus
COc1ccc(C(=O)NNC(=S)NC(=O)c2cc(-c3ccccc3)nc3ccccc23)cc1	-17.9%	-20.3%
CC[C@@H](CO)NC(=O)[C@@H]1C=C2c3cccc4[nH]cc(c34)C[C@H]2N(C)C1	i	-12.4%
Cc1cccc(N/C(N)=N/c2nc(C(F)(F)F)cc(=O)[nH]2)c1C	-14.8%	-8.6%
COc1ccccc1C(CNC(=O)c1cccc(S(=O)(=O)Nc2ccc(F)cc2)c1)N1CCCC1 (stereo not drawn)	-27.3%	-10.4%
Cc1csc2nc(=O)c3ccccc3n12	-14.3%	-18.2%
COC(=O)c1c(NC(=O)c2cccnc2)sc(C)c1C	·	-26.2%
O=C(c1cc(-c2ccccc2)nc2ccccc12)N1CCCC1	1.4%	-3.7%
COc1ccc(C(CC(=O)Nc2cc(OC)cc(OC)c2)n2cccc2)cc1 (stereo not drawn)	-24.7%	-14.8%
O=C(C1CCN(S(=O)(=O)c2ccc(-n3cnnn3)cc2)CC1)N1CCN(c2ccccc2)CC1	-9.6%	-10.1%
CC1CC(C)CN(C(=O)CCn2c(=O)oc3ccccc32)C1 (stereo not drawn)	-24.7%	-12.9%
Cc1cc(C)n(-c2cccc(CN(C)Cc3nc(-c4cnccn4)no3)c2)n1	-13.4%	-4.1%
C=CCn1c(N2CCCC2)nc2c1c(=O)[nH]c(=O)n2C	-20.8%	-9.8%
C/C(CC(=O)Nc1ccc2c(c1)OCCO2)=N\NC(=O)COc1cccc(C)c1	i	-7.9%
CC1(C)CC(=O)C=C(NCC2CCCO2)C1 (stereo not drawn)	i	-3.5%
COc1ccc2[nH]cc(CCN3C(=O)c4ccc(C(=O)O)cc4C3=O)c2c1	-5.2%	-15.4%
CCn1c(-c2ccccc2)c[nH]c1=S	·	-9.2%
COc1ccc(-c2cc(C(F)(F)F)nc(SCCC(=O)Nc3ccc(OC)c(OC)c3)n2)cc1	-7.0%	1.5%
COC(=O)[C@]12CCCCC=C1N(Cc1ccc(Cl)cc1Cl)C(=O)[C@H](CC(=O)N1CCCC1)C2	23.7%	-4.5%
O=C(O)CCn1c(C(=O)O)cc2sccc21	-14.5%	-13.2%
O=S(=O)(Nc1ccc(Cl)cn1)c1ccc(F)cc1	-0.4%	-7.7%
CCOc1c(CC2C(=O)Nc3ccc(Br)cc32)cccc1OC (stereo not drawn)	-15.1%	-4.0%
Cc1cc(Nc2ccc(F)cc2)nc(-n2nc(C)cc2C)n1	-8.8%[7.34 µM]	-17.2%[7.34 µM]
ON/C=N/C(=S)Nc1ncc(C(F)(F)F)cc1Cl	i	-3.1%
Cc1ccc(NC(=O)C2C3CC4OC(=O)C2C4C3)cc1Cl (stereo not drawn)	·	12.8%
Cc1cc(C)n(-c2ccc(S(N)(=O)=O)cc2[N+](=O)[O-])n1	-2.0%	-12.7%

Next structures:
SMILES	VACV mCherry inh	Vaccinia Venus
CC(CCc1ccccc1)NC(=O)c1ccc(Cl)nc1 (stereo not drawn)	-1.5%	1.2%
COc1ccc(C(=O)N2CCC(c3c[nH]c4ccccc34)(c3c[nH]c4ccccc34)CC2)cc1	-27.5%	-14.3%
CCc1ccc(/C=C(/C#N)c2nc(-c3ccc(C)cc3)cs2)cc1	10.1%	7.5%
CC(Oc1ccc(Cl)cc1)C(=O)Nc1ccc(S(=O)(=O)Nc2nccs2)cc1 (stereo not drawn)	0.6%	21.3%
CC1CCC2C(=O)N(c3ccc(NC4CCCCC4)c([N+](=O)[O-])c3)C(=O)C2C1 (stereo not drawn)	-7.7%	-20.3%
Cc1ccc2c(c1)[nH]c1c(=O)n(Cc3ccco3)cnc12	i	-5.2%
COc1cc(OC)c(NC(=O)Cn2c(=O)cc(C)c3c(C)nn(-c4ccc(C)cc4)c32)cc1Cl	-9.3%	-11.0%
O=C(Nc1ccc(F)cc1)c1cc(S(=O)(=O)Nc2ccc(F)cc2)cs1	·	-28.7%
O=C1C2C3C=CC(C3)C2C(=O)N1CNc1ccccn1 (stereo not drawn)	-22.0%[1.46 µM]	-7.7%
O=C(CN(C(=O)CNS(=O)(=O)c1ccccc1)c1ccc2c(c1)OCCO2)NC1CCCCC1	-5.5%	-18.0%
COc1ccc(CCN(Cc2ccc(C(C)C)cc2)S(=O)(=O)c2ccc(S(=O)(=O)N(C)C)cc2)cc1OC	i	-6.0%
C=CCN1C(=O)c2ccc(C(=O)N(C)CC(=O)Nc3ccccc3C(F)(F)F)cc2C1=O	-5.2%	-6.9%
COc1ccc(-n2nc(C(=O)Nc3ccc(C(C)=O)cc3)nc2-c2ccccc2)cc1	-18.8%	-5.6%
CN1CCC(NC(=O)c2ccncc2)CC1	i	-2.0%
O=C(Nc1ccccc1)C(=O)Nc1cccnc1	-19.1%	-8.2%
O=C(Nc1cccnc1)c1ccc(-c2cc(Cl)ccc2Cl)o1	-22.5%	-15.1%
CCCc1nnc(SCC(=O)N2C(C)CCCC2C)n1CC1CCCO1 (stereo not drawn)	-12.9%	0.3%
Nn1c(N2CCCCC2)nc2ccccc21	·	-10.2%
Cc1csc(NC(=O)CSc2ccc3nnc(-c4ccncc4)n3n2)n1	-15.9%	19.2%
CCOC(=O)CC(NS(=O)(=O)Cc1ccccc1)c1ccc(C)cc1 (stereo not drawn)	-18.8%	-2.4%
COC(=O)Nc1ccc(S(=O)(=O)N2CCCc3cccc(O)c32)cc1	?	?
Cc1cccc(-c2nc(Cn3c(=O)cc(-c4ccccc4)c4c(C)nn(C)c43)c(C)o2)c1	-16.3%	-17.1%
Cn1c(CSCc2ccc(Cl)c(Cl)c2)n[nH]c1=S	?	-24.3%
COC(=O)c1c(C)cc(C)c2c1CC(C)(C)C2=O	-4.0%	-16.2%
COc1nc(C)nc(C)c1Oc1ccc(Cl)cc1Cl	-4.6%	-9.5%

Some of these compounds in order of molecular weight, rising.
SMILES	VACV mCherry inh	Vaccinia Venus
Nn1c(N2CCCCC2)nc2ccccc21	·	-10.2%
COC(=O)c1c(C)cc(C)c2c1CC(C)(C)C2=O	-4.0%	-16.2%
O=C1C2C3C=CC(C3)C2C(=O)N1CNc1ccccn1 (stereo not drawn)	-22.0%[1.46 µM]	-7.7%
Cc1ccc2c(c1)[nH]c1c(=O)n(Cc3ccco3)cnc12	i	-5.2%
CC(CCc1ccccc1)NC(=O)c1ccc(Cl)nc1 (stereo not drawn)	-1.5%	1.2%
COc1nc(C)nc(C)c1Oc1ccc(Cl)cc1Cl	-4.6%	-9.5%
O=C(Nc1cccnc1)c1ccc(-c2cc(Cl)ccc2Cl)o1	-22.5%	-15.1%
CCOC(=O)CC(NS(=O)(=O)Cc1ccccc1)c1ccc(C)cc1 (stereo not drawn)	-18.8%	-2.4%
COC(=O)Nc1ccc(S(=O)(=O)N2CCCc3cccc(O)c32)cc1	?	?
CCCc1nnc(SCC(=O)N2C(C)CCCC2C)n1CC1CCCO1 (stereo not drawn)	-12.9%	0.3%
Cc1csc(NC(=O)CSc2ccc3nnc(-c4ccncc4)n3n2)n1	-15.9%	19.2%
CC1CCC2C(=O)N(c3ccc(NC4CCCCC4)c([N+](=O)[O-])c3)C(=O)C2C1 (stereo not drawn)	-7.7%	-20.3%
O=C(Nc1ccc(F)cc1)c1cc(S(=O)(=O)Nc2ccc(F)cc2)cs1	·	-28.7%
COc1ccc(-n2nc(C(=O)Nc3ccc(C(C)=O)cc3)nc2-c2ccccc2)cc1	-18.8%	-5.6%
Cc1cccc(-c2nc(Cn3c(=O)cc(-c4ccccc4)c4c(C)nn(C)c43)c(C)o2)c1	-16.3%	-17.1%
CC(Oc1ccc(Cl)cc1)C(=O)Nc1ccc(S(=O)(=O)Nc2nccs2)cc1 (stereo not drawn)	0.6%	21.3%
C=CCN1C(=O)c2ccc(C(=O)N(C)CC(=O)Nc3ccccc3C(F)(F)F)cc2C1=O	-5.2%	-6.9%
COc1ccc(C(=O)N2CCC(c3c[nH]c4ccccc34)(c3c[nH]c4ccccc34)CC2)cc1	-27.5%	-14.3%
O=C(CN(C(=O)CNS(=O)(=O)c1ccccc1)c1ccc2c(c1)OCCO2)NC1CCCCC1	-5.5%	-18.0%
COc1ccc(CCN(Cc2ccc(C(C)C)cc2)S(=O)(=O)c2ccc(S(=O)(=O)N(C)C)cc2)cc1OC	i	-6.0%

Next part.
SMILES	VACV mCherry inh	Vaccinia Venus
CCOC(=O)Cn1c(=NC(=O)CSC(C)=O)sc2ccccc21	i	2.1%
CCC(C)NC(=O)CSc1ccc(Cl)cc1 (stereo not drawn)	1.8%	-4.3%
CN(CC1CCCN(CCc2ccccc2F)C1)C(=O)c1cc2ccccc2o1 (stereo not drawn)	i	-19.1%
COc1ccc2c(c1)C=C(CN1CCC(CO)(CCc3ccccc3)CC1)CO2	?	-2.0%
COc1ccc(C2c3c(n(C)c4ccccc34)C(=O)N2CC(=O)Nc2ccccc2F)cc1 (stereo not drawn)	i	-3.2%
COCCNC(=O)c1c(CS(=O)(=O)c2ccccc2)noc1C(=O)NCc1ccccc1	-14.1%	-13.8%
CCOC(=O)C1=CCN(S(=O)(=O)c2ccc(F)cc2)C1c1ccc(C)cc1 (stereo not drawn)	i	-3.5%
O=C(NCCCc1ccccc1)[C@@H]1Cc2ccccc2CN1	-13.1%	-7.9%
CCc1cccc(CC)c1NC(=O)CCS(=O)(=O)c1ccc(Br)s1	-16.5%	2.6%
Nc1ccc(C(=O)OCc2nc3c(ccc4ccccc43)[nH]2)cc1	-29.2%	-24.3%
O=C(Nc1nnc(-c2ccccc2F)s1)c1ccccc1F	-5.9%	-0.5%
Cc1ccc(OCC(=O)N/N=C/c2cccnc2)cc1	-11.9%	0.2%
O=C(COc1nc2ccccc2nc1N1CCOCC1)Nc1cccc(S(=O)(=O)N2CCCCC2)c1	i	-6.6%
Cc1c(C(=O)C(=O)NCc2ccco2)c2ccccc2n1C	i	-1.6%
COC(=O)C1CC2=C(CCCC2=O)N(Cc2ccccc2)C1=O (stereo not drawn)	i	0.4%
CCOC(=O)C1CCN(C(=O)c2ccc3c(c2)sc2nc(-c4ccc(OCC)cc4)cn23)CC1	-10.6%	-24.4%
CCCC1NC(=O)c2cc3ccccc3cc2-n2c1nc1cc(Cl)ccc1c2=O (stereo not drawn)	-4.3%	-24.5%
O=C(Nc1cccc(Cl)c1)c1ccc(F)c(S(=O)(=O)N2CCC3(CC2)OCCO3)c1	-28.8%	-29.1%

Screening results (PubChem BioAssay)
